Bioassay records (PubChem)
Arbovirus inh: antivirals against arbovirus infection, primary screen, cell-based, full library, 10K replicate subset | arbovirus infection cell-based antiviral screen | inhibition, % at 10 µM | actives 0.37% (n = 200,000) | AID 1251, 2008;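 active means inhibition from about 30%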;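 further: bluetongue infection of BSR cells; cell survival read as ATP light after 72 h; 0% = infected wells without compound and 100% = uninfected wells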
RecA splice inh: Mtb RecA intein splicing inhibitors, primary screen, biochemical, fluorescence, HTS; Protein RecA (Mycobacterium tuberculosis (strain ATCC 25618 / H37Rv)), P9WHJ3; cell-free RecA intein splicing; inhibition, %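 (about 9 µM by stock and volumes)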; actives 0.75% (n = 290,000); AID 2221, 2009; in the data active means inhibition above about 30%; inconclusive means no clear call, values can overlap the other calls;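 further: 0% = vehicle wells and 100% = reference inhibitor control wells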
Target sequence (P9WHJ3 whole entry, looked up, canonical isoform): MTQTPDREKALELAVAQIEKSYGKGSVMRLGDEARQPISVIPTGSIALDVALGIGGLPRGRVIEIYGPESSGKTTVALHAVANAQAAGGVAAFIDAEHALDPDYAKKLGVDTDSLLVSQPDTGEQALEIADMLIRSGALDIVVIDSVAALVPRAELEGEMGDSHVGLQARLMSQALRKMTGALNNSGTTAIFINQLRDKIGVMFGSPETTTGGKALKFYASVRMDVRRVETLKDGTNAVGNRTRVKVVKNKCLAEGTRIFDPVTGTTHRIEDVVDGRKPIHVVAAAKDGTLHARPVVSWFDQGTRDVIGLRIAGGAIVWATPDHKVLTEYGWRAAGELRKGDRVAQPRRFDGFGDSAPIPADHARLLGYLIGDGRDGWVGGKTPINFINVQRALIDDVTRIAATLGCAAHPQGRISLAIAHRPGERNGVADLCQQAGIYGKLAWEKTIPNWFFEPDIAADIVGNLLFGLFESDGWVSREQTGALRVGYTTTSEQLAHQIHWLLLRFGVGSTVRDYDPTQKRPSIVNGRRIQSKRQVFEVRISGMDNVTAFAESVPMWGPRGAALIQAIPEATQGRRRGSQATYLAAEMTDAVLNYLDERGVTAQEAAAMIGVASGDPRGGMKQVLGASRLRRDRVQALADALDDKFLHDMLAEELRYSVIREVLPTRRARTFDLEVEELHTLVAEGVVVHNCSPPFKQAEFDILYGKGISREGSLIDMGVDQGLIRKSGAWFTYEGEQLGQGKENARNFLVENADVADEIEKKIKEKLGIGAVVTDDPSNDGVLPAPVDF
Mtb growth: M. tuberculosis H37Rv growth inhibitors, H37Rv strain (AID 1626). inhibition, % at 10 µM, or IC50 in µM where a hit was titrated. M. tuberculosis H37Rv growth inhibition; higher % means a stronger effect. actives 0.95% (n = 220,000);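 active means confirmed in a dose series; inconclusive means inhibition above 80% but not taken into the dose series; inactive means below 80% or under 30% at every dose of the series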;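 further: bacteria incubated seven days before Alamar blue readout; 0% = bacteria only wells and 100% = bacteria with antibiotic wells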
Mtb bLac sens: beta-lactam sensitization of Mtb H37Rv, H37Rv; AID 434955, 2010; M. tuberculosis H37Rv growth with meropenem, percent inhibition; hits of this screen are not shown here; inhibition, % at 25 µM; actives 0.27% (n = 330,000);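 active means about 74% or more and at least 40 points above the plate without the antibiotic, then above 30% in a dose series; inconclusive means first-round hits that could not be retested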;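 further: growth measured after seven days incubation then overnight dye step; 0% = bacteria only wells and 100% = bacteria with antibiotic; twin plates without the antibiotic show which effects depend on it; some results filed as inactive read as strong as hits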
YopH PTP inh: YopH tyrosine phosphatase inhibitors, primary screen, biochemical, fluorescence Ex485/Em525; YopH tyrosine phosphatase [Yersinia enterocolitica]; inhibition, %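 (about 10 µM by stock and volumes)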; actives 0.16% (n = 140,000); AID 898, 2007;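 active means inhibition of 50% or more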;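 further: controls were vehicle for no effect and minimum signal wells for full effect; inactives centre near -20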
Arbovirus inh repeat: recorded beside Arbovirus inh, whose call it bears; inhibition, %; measured here: 10K subset replicate screen; many hits read low in the repeat;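 first of two repeat runs on a subset; 0% = infected and 100% = uninfected wells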
* hit, by the source's call; ? = inconclusive; · = not tested or not shown. A portion of the library; the hit share may differ from the screen's.

SMILES	Arbovirus inh	RecA splice inh	Mtb growth	Mtb bLac sens	YopH PTP inh	others
COc1ccc(CCN2Cc3c(cccc3[N+](=O)[O-])C2=O)cc1OC	·	-0.1	·	-5	·
CN1CCN(CC(=O)Nc2cc(N3CCOCC3)ccc2[N+](=O)[O-])CC1	1	1.6	-2%	9	-24
O=C(OCc1nnc(-c2ccccc2)o1)c1ccc2ccccc2n1	-5	3.7	-18%	-13	-24
CCCCC1(C)NC(=S)N2N1C(=S)NC2(C)CCCC (configuration not stated)	·	-1.6	-5%	-9	·
CCOc1ccc(-c2cc(C(=O)OC)nc3c2c(=O)n(C)c(=O)n3C)cc1	·	-1.8	·	2	·
CCOc1ccccc1OCC(=O)Oc1ccc(C)c(C)c1	·	9.5	·	5	·
COc1cc(CCC(=O)NNC(=O)c2ccc(Cl)cc2)cc(OC)c1OC	·	-0.8	·	-1	·
O=C(Nc1ccccc1C(=O)Nc1ccncc1)c1ccccc1	·	-0.6	·	0	·
Cc1ccc(NC(=O)CN2CCC(C(=O)c3ccc4c(c3)OCCO4)CC2)cc1	9	0.2	-10%	3	-14
Cc1cccc(C)c1Nc1c(-c2ccccn2)nc2ccccn12	-29	25	?	99	·
O=C(CNS(=O)(=O)c1ccccc1Br)OCC(=O)N1CCc2ccccc21	11	-1.8	0%	-3	-11
CCc1ccc(/C=C/c2c([N+](=O)[O-])c(=O)n(C)c(=O)n2C)cc1	·	9.2	·	26	·
CCCCOC(=O)Nc1ccc(S(=O)(=O)Nc2ccc([N+](=O)[O-])cc2)cc1	-6	-1.3	6%	-6	-10
COc1ccc(NC(=O)CSc2ccc3c4c(cccc24)C(=O)c2ccccc2-3)cc1	-15	-17	-2%	27	-20
CC1CCN(CCCn2c(=S)[nH]c3ccc(N4CCOCC4)cc3c2=O)CC1	7	-17	1%	-24	-23
CCC(=O)N1CCc2cc(S(=O)(=O)Nc3ccccc3C)ccc21	·	5.1	·	-3	·
CC(C)=CCc1c(O)cc2c(c1O)C(=O)CC(c1ccc(O)cc1)O2 (configuration not stated)	·	12	0%	-4	·
CCC(CC)C(=O)c1c[nH]c(C(=O)N2CCN(c3ccc(OC)cc3)CC2)c1	2	-4.7	-1%	-10	·
COc1ccc(C(=O)COC(=O)CNC(=O)c2cccc(OC(F)F)c2)cc1	5	-0.8	7%	-1	·
CCOc1ccc(/C=C/C2=NNC(=O)CC2)cc1	5	-0.8	-4%	3	·
CN(Cc1c(C(=O)N/N=C/c2cccs2)nnn1-c1nonc1N)c1ccccc1	·	-2.5	·	-4	·
O=C(NCc1ccco1)C(c1cccs1)N(C(=O)C1COc2ccccc2O1)c1cccc(O)c1 (configuration not stated)	-5	9.6	3%	0	-33
Cc1ccc(NS(=O)(=O)c2ccccc2[N+](=O)[O-])cc1C	24	1.9	-5%	2	·
C[C@H](NC(=O)OC(C)(C)C)c1nnc(SCC(N)=O)o1	-1	2.4	2%	9	-25
CCC(C)(C)n1nnnc1C(C(C)C)N1CCSCC1 (configuration not stated)	3	·	-4%	-8	0
COc1cccc(C2SCC(=O)N2c2cccc(C)c2)c1OC (configuration not stated)	-4	2.3	-9%	-4	-25
CCOc1ccccc1C(=O)NCC(=O)OCCOc1cccc(Cl)c1	·	6.7	·	?	·
CC(C)(C)c1nnc(NC(=O)c2ccc3c(c2)OCO3)s1	·	1.4	·	25	·
Cc1ccc(Sc2nc(-c3ccccc3)ccc2C#N)cc1	-6	-1.8	4%	5	-21
CC1CCN(C(=O)C2c3ccccc3C(=O)N3CCc4ccccc4C23)CC1 (configuration not stated)	11	·	3%	-3	-28
Cn1cnnc1SCc1ccc(C#N)cc1Cl	-1	·	-8%	2	-56	Arbovirus inh repeat=1
Cc1ccc(C(C)C)c(OCC(=O)NCC(c2cccs2)N2CCOCC2)c1 (configuration not stated)	·	1.6	·	1	·
O=C(Nc1ccccc1N1CCCC1)c1ccccc1Cl	·	0.3	·	93	·
CC1=C(C(=O)OC(C)C)C(C2CC=CCC2)NC(=O)N1 (configuration not stated)	6	-2.9	-5%	-9	-12
CCCCCn1c(N)c(-c2nc3ccccc3s2)c2c([N+](=O)[O-])nn(CC)c(=O)c21	-14	1.0	9%	14	-18
Cn1cccc1C(=O)OCC(=O)Nc1cccc(S(=O)(=O)N2CCOCC2)c1	-1	7.6	-5%	0	·
O=C(NCCC1=CCCCC1)c1ccc2c(c1)N(Cc1ccccc1)C(=O)CS2	0	0.4	5%	2	5
N#C/C(=C\c1cc(O)c(O)c(O)c1)C(N)=O	·	-2.9	-3%	3	·
Cc1cc(NC(=O)c2c(C)noc2C)no1	·	0.0	-11%	-11	·
CCOc1cc(/C=C2\SC(=S)N(NS(=O)(=O)c3ccccc3)C2=O)ccc1O	·	4.0	·	-8	·
O=C(c1cccs1)N1CCN(CCCc2ccccc2)CC1	-9	2.8	-3%	-16	-9
CN(C)CCCN(C(=O)c1ccc(C(=O)c2ccccc2)cc1)c1nc2cc3c(cc2s1)OCO3	·	3.8	·	3	·
Cc1ccc(-c2noc(CCCC(=O)NC3CCCCC3)n2)cc1	·	-3.3	·	2	·
COc1ccc(OC)c(NC(=O)CN(Cc2ccccc2)S(C)(=O)=O)c1	4	3.1	6%	4	·
C(=N\Nc1nc(-c2ccccn2)nc2ccccc12)/c1ccccc1	·	-2.7	?	99	·
O=C(c1cc(C(=O)NCc2ccccc2)c(=O)n(Cc2ccccc2)c1)c1cc(Br)ccc1O	16	-5.3	47%	0	-8
Cc1cccc(C(=O)NCC(=O)N2CCCC2)c1	·	2.0	·	0	·
CCOC(=O)c1ccc(N2C(=O)c3n[nH]c(C)c3C2c2ccccn2)cc1 (configuration not stated)	11	-0.6	-5%	1	-36	Arbovirus inh repeat=-1
C[C@H](NC(=O)CCCn1nnc2ccccc2c1=O)C(=O)O	·	-1.3	13%	-10	·
COC(=O)[C@@H](Cc1c[nH]c2ccccc12)NC(=O)C1CCCN(S(=O)(=O)c2ccc(C)cc2)C1 (some centres not stated)	·	2.8	·	-2	·
Cc1ccc(-n2c(NN)nc3ccccc3c2=O)c(C)c1	-14	-5.7	10%	3	34
Cc1[nH]nc(SCC(=O)NC(C)c2ccccc2)c1[N+](=O)[O-] (configuration not stated)	-5	-1.4	8%	-8	-24
Cc1ccc(C(c2nnnn2CCc2ccccc2)N2CCC(C)CC2)cc1 (configuration not stated)	-27	9.2	5%	-4	13
CC1(C(O)(C#CC[N+]2(C)CCCCC2)c2ccccc2)CCCC1 (configuration not stated)	11	0.2	-3%	-15	·
OCc1ccccc1CNCc1ccccc1	1	-0.7	-2%	0	-5
COc1ccc(C(C)=O)cc1COC(=O)Cc1n[nH]c(=O)c2ccccc12	1	0.9	2%	1	-25
CC(C)=CC(=O)N1CC[C@@H](N2CCN(c3ccccc3F)CC2)[C@H](O)C1	·	-5.7	·	-7	·
CC(=O)c1cc(-c2ccccc2)n(CC(=O)N2CCCC2)c1C	7	-1.2	-3%	5	·
CC(=O)c1c(C)oc2ccc(N(C(C)=O)S(=O)(=O)c3ccc(Cl)c([N+](=O)[O-])c3)cc12	-26	16	0%	13	-4
Cc1ccc(C)c(-n2nnnc2Sc2nc([N+](=O)[O-])nn2C)c1	0	-45	-10%	2	15

(continued)
SMILES	Arbovirus inh	RecA splice inh	Mtb growth	Mtb bLac sens	YopH PTP inh	others
O=C(N[C@@H](Cc1ccccc1)c1nc2ccccc2[nH]1)c1cc([N+](=O)[O-])ccc1Cl	19	4.6	5%	-13	-36
COc1cc(/C=N/NC(=O)c2cc(-c3cccc(Br)c3)nc3ccccc23)cc(OC)c1O	·	-5.1	·	2	·
COc1ccc(C(=O)NNC(=O)CCC(=O)Nc2cc(C)on2)cc1	-14	-1.0	-11%	1	-13
CC(/C=N/NC(=O)c1ccccc1C)=C\c1ccccc1	·	0.4	·	-2	·
O=C(OCC(=O)N1CCN(c2ccccc2)CC1)c1ccc2ncsc2c1	-1	·	13%	56	-9
CCC(C)NS(=O)(=O)c1ccc(NC(=O)c2ccc([N+](=O)[O-])cc2Cl)cc1 (configuration not stated)	10	3.4	1%	-2	-30
COc1cccc(CN(C)C(=O)C(Cc2ccccc2)NC(=O)c2ccccc2)c1OC (configuration not stated)	·	-1.2	·	-10	·
CC1CN(C2CCN(C(=O)COc3ccc(Cl)cc3)CC2)CC(C)O1 (configuration not stated)	2	-1.1	-3%	3	-10
O=C(NC1CCCCC1)c1ccc(S(=O)(=O)N2CCCC2)cc1	6	0.2	-3%	-1	-13
Cn1ccs/c1=N\S(=O)(=O)c1ccc(C(C)(C)C)cc1	4	-1.1	-7%	-2	-15
CSCCC(NC(=O)c1ccccc1Br)C(=O)NCC(C)(C)N1CCOCC1 (configuration not stated)	·	0.1	·	-5	·
CCNc1nc(NCC)n2c(SC(C(=O)Nc3cc(C)ccc3OC)c3ccccc3)nnc2n1 (configuration not stated)	-15	-2.0	50%	99	36
COc1ccc(C(=O)COC(=O)c2cccnc2Cl)c(OC)c1	7	4.3	2%	1	·
CC1(C)Cc2c(c(-c3ccco3)nc3sc4c(NCC5CCCO5)ncnc4c23)CO1 (configuration not stated)	-13	-0.7	2%	18	-36
CCOc1ccc(CCNS(=O)(=O)c2ccc3c(c2)oc(=O)n3C)cc1OCC	·	-2.7	·	-2	·
O=C(C[n+]1cc(Br)cc2ccccc21)c1ccc(Br)cc1	·	3.9	·	-1	·
CC(C)N(CC#CCC(O)(c1ccccc1)c1ccccc1)C(C)C	-4	-2.2	1%	-6	0
Cc1cccc2[nH]c3c(=O)n(CCN4CCNCC4)cnc3c12	2	-0.2	-4%	-3	-42
Cc1cccnc1-n1c(CN2C(=O)c3ccccc3C2=O)nc2ccccc2c1=O	-1	-5.8	-3%	-7	-3
Cc1ccc(C(=O)N2CCN(c3ncccn3)CC2)cc1	·	-0.9	·	4	·
O=C(CSc1ccc2ccccc2c1)Nc1ccc(S(=O)(=O)Nc2nccs2)cc1	16	19	2%	-1	-17
COCCNC(=O)COc1ccc(Oc2ccccc2)cc1	-3	1.6	7%	·	-16
COc1cccc2c1OCC/C2=N\NC(=O)COc1ccc(C)cc1	7	-3.0	-2%	5	-33
CCN1CCCC(NC(=O)c2cc([N+](=O)[O-])ccc2OC)C1 (configuration not stated)	18	-1.8	-2%	-7	-24
Cn1c(=O)c2c(ncn2CC(=O)Nc2ccccc2Sc2ccccc2)n(C)c1=O	-5	-1.0	3%	-9	-11
Cc1c(NC(=O)C2CCCCC2)cc(C(=O)N2CCOCC2)cc1[N+](=O)[O-]	3	-2.2	-4%	-6	·
Cc1ccc(-c2[nH]ncc2/C=N/n2c(COc3ccccc3C)nc3ccccc3c2=O)cc1	-36	3.8	22%	4	-10
O=C(Cc1ccc(Cl)cc1)NC1CCCN(Cc2ccccc2F)C1 (configuration not stated)	·	-0.8	·	1	·
COc1cccc(CNC(=O)c2ccc(NC(=O)C3=CSCCO3)cc2)c1	·	1.0	·	8	·
CCOc1cc(C(=O)NC(C)COC)cc(OCC)c1OCC (configuration not stated)	7	-1.2	-8%	4	13	Arbovirus inh repeat=-1
Cc1nn(CC(=O)NC(C)c2ccccc2)c(C)c1[N+](=O)[O-] (configuration not stated)	4	-0.5	0%	0	·
O=C(O)CCCC(=O)NCc1c(Cl)cccc1Sc1ccc(Cl)cc1	·	-1.7	8%	41	·

A portion from the list above, as a working copy:
SMILES	Arbovirus inh	RecA splice inh	Mtb growth	Mtb bLac sens	YopH PTP inh	others
Cc1c(NC(=O)C2CCCCC2)cc(C(=O)N2CCOCC2)cc1[N+](=O)[O-]	3	-2.2	-4%	-6	·
Cc1ccc(-c2[nH]ncc2/C=N/n2c(COc3ccccc3C)nc3ccccc3c2=O)cc1	-36	3.8	22%	4	-10
O=C(Cc1ccc(Cl)cc1)NC1CCCN(Cc2ccccc2F)C1 (configuration not stated)	·	-0.8	·	1	·
COc1cccc(CNC(=O)c2ccc(NC(=O)C3=CSCCO3)cc2)c1	·	1.0	·	8	·
CCOc1cc(C(=O)NC(C)COC)cc(OCC)c1OCC (configuration not stated)	7	-1.2	-8%	4	13	Arbovirus inh repeat=-1
Cc1nn(CC(=O)NC(C)c2ccccc2)c(C)c1[N+](=O)[O-] (configuration not stated)	4	-0.5	0%	0	·
O=C(O)CCCC(=O)NCc1c(Cl)cccc1Sc1ccc(Cl)cc1	·	-1.7	8%	41	·
